Bioassay records deposited in PubChem by ICCB-Longwood Screening Facility, Harvard Medical School.
Polio RdRp inh – poliovirus RNA polymerase inhibition; P03300; poliovirus polymerase elongation, fluorescence polarization; active compounds read low; % elongation, % (compound at 16.7 µg/mL); hit rate 0.66% among 150,000; in the data active = % elongation below about 90%; note: some results filed as inactive read as strong as hits
Target sequence (P03300 1749-2209 limits assumed): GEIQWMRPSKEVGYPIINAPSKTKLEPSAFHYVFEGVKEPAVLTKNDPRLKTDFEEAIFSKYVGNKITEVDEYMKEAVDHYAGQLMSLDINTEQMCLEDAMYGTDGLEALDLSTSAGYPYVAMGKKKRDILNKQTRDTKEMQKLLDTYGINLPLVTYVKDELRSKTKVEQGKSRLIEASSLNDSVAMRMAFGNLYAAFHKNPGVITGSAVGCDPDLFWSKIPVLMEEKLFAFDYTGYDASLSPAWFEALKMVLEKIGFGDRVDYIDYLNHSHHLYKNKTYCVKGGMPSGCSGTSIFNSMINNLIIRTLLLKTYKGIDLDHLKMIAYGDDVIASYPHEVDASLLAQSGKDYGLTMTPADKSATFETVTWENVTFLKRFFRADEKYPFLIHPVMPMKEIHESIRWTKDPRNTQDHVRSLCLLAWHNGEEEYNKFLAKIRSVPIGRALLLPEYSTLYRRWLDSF
Polio RdRp inh intensity – recorded beside Polio RdRp inh, whose call it bears; % elongation; measured here: total intensity read-out; formula for this scale not given here;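 total fluorescence in place of polarization; lower means less elongation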
The depositor's hits bear a star. A portion of the library, so the mix of outcomes need not match the whole.

SMILES | Polio RdRp inh | Polio RdRp inh intensity
COc1ccc(CC(=O)NCCc2csc(-c3ccc(Cl)cc3)n2)cc1 | 107 | 98
c1coc(-c2nc3n(n2)C2(CCCCC2)[C@@H]2CCCC[C@@H]2N3)c1 | 106 | 105
CCOC(=O)COc1ccc([N+](=O)[O-])cc1-c1ccnc2cc(-c3ccc(Cl)cc3)nn12 | 106 | 109
CCC1CN(C(=O)C2CCN(S(=O)(=O)c3c(C)noc3/C=C/c3ccccc3F)CC2)c2cc(Cl)ccc2O1 (stereo unspecified) | 107 | 107
CCCCNc1sc(S(=O)(=O)CC)nc1S(=O)(=O)c1ccc(C)cc1 | 108 | 108
CCOc1ccc(CCNCc2c(C(=O)O)n(Cc3ccc(C)cc3)c3cc(OC)ccc23)cc1 | 109 | 112
Cc1cc2c(cc1S(=O)(=O)NCc1ccccc1)OCC(=O)N2 | 106 | 108
COc1ccc(CNC(=O)Cn2ccc3cc(S(=O)(=O)N4CCCCC4)ccc32)cc1OC | 104 | 108
COc1ccc(-c2nc(CCNC(=O)Cc3ccc(F)cc3)cs2)cc1 | 107 | 101
CN(C(=O)Cn1c(=O)n(Cc2ccc(C(=O)NCc3ccc4c(c3)OCO4)cc2)c(=O)c2ccccc21)c1ccccc1 | 109 | 106
CCNC(=O)CC1C(=O)N(c2ccccc2)C(=O)N1Cc1ccc(F)cc1 (stereo unspecified) | 101 | 101
COc1cccc(CCNC(=O)Cn2c(-c3cccs3)cc3ccccc32)c1 | 103 | 101
O=C(NCc1cccc(F)c1)c1ccc2nc(CCc3ccccc3)oc2c1 | 110 | 112
CNS(=O)(=O)c1cn(CC(=O)Nc2ccc(OC)c(Cl)c2)cc1S(=O)(=O)NC | 99 | 105
COc1cc2nc(SCc3ccc(C)cc3)n3nc(CCn4nc(C)cc4C)nc3c2cc1OC | 105 | 104
COc1ccc(Cl)cc1NC(=O)CCc1c(C)nc2c(c1C)c(=O)n(C)c(=O)n2C | 107 | 111
Cc1ccc(S(=O)(=O)n2nc(C)c(S(=O)(=O)N3CCCCCC3)c2C)cc1C | 105 | 102
Cc1ccc(C)c(NC(=O)CSc2ncc3c(n2)-c2ccc(Cl)cc2N(C)S3(=O)=O)c1 | 104 | 110
COc1ccc(OC)c(-c2nnc3n(Cc4ccc(C)cc4)c(=O)c4ccccc4n23)c1 | 64* | 66*
CCC1=Nc2cc(C(=O)NCCc3ccccc3)ccc2Sc2ccc(Cl)cc21 | 115 | 113
CCOc1ccc(CCNC(=O)c2c(C)oc3ncn(C)c(=O)c23)cc1 | 108 | 110
Cc1cc(F)ccc1S(=O)(=O)Nc1ccc2oc3c(c2c1)CC(C)CC3 (stereo unspecified) | 103 | 107
COc1ccc(OC)c(NC(=O)[C@H](CSCc2ccccc2)N2Cc3ccccc3C2=O)c1 | 105 | 106
CC(=O)c1cccc(Nc2cc(C)nc3nc(-c4ccccc4C)nn23)c1 | 99 | 99
CCOC(=O)c1c(NC(=O)CSc2cn(CCNC(=O)c3ccc(OCC)cc3)c3ccccc23)sc2c1CCCC2 | 104 | 111
Clc1cccc(CNc2ncnc3c2nc2n3CCCC2)c1 | 114 | 115
CCOC(=O)c1cnc2ccc(C(=O)OC)cc2c1Nc1ccc(N2CCOCC2)cc1 | 104 | 104
Cc1cccc(-c2nc(CN3CCCC(C(=O)NCCc4ccc(Cl)cc4)C3)c(C)o2)c1 (stereo unspecified) | 110 | 106
CCOc1ccc(C(=O)N2CCN(Cc3cc(=O)n4nc(-c5ccccc5Cl)sc4n3)CC2)cc1 | 110 | 113
Cc1ccc(CNC(=O)CCc2c(C)nc3nc(C)nn3c2C)cc1 | 108 | 108
Cc1cn2c(=O)c(S(=O)(=O)NCCc3ccccc3)c(C)nc2s1 | 108 | 111
CCOc1ccc(CCNC(=O)c2cnc3sc(N4CCOCC4)nn3c2=O)cc1 | 105 | 107
COc1ccc(Cl)cc1S(=O)(=O)N1CCC(c2ccncc2)CC1 | 104 | 98
CC(=O)c1ccc(N2C(=O)N(Cc3ccc(F)cc3)c3ccccc3S2(=O)=O)cc1 | 107 | 110
Cc1c(NC(=O)c2ccc(-c3ccc(F)cc3)o2)cccc1-c1nc2ncccc2o1 | 108 | 108
Cc1ccn2c(Nc3ccccc3)c(-c3c[nH]c4ccccc34)nc2c1 | 112 | 123
COc1cc(OC)c(NC2(c3ccccc3)C(=O)c3ccccc3C2=O)cc1Cl | 108 | 110
O=C(COc1ccccc1Cl)NCC1(N2CCOCC2)CCCCC1 | 103 | 98
O=C(CCS(=O)(=O)c1cc(Br)cc2c1N(C(=O)C1CC1)CC2)Nc1ccc(Br)cc1F | 102 | 105
COc1ccc(N(CC(=O)NCCc2cccc(C)c2)S(=O)(=O)c2c(C)nn(C)c2C)cc1 | 106 | 112

Reprinted at random: two compounds from above
SMILES | Polio RdRp inh | Polio RdRp inh intensity
CCOC(=O)COc1ccc([N+](=O)[O-])cc1-c1ccnc2cc(-c3ccc(Cl)cc3)nn12 | 106 | 109
Cc1cn2c(=O)c(S(=O)(=O)NCCc3ccccc3)c(C)nc2s1 | 108 | 111

(further entries)
SMILES | Polio RdRp inh | Polio RdRp inh intensity
Cc1ccc(-c2nc(S(=O)(=O)c3ccc(Cl)cc3)c(N3CCCCC3)o2)cc1 | 107 | 107
Cc1ccc(OCCSc2nnc(-c3cccs3)o2)cc1Cl | 106 | 107
CCCn1c(=O)c2sccc2n2c(CCCC(=O)NC3CCC(C)CC3)nnc12 (stereo unspecified) | 115 | 124
Cc1nn(Cc2ccc(Cl)cc2)c(C)c1NC(=O)c1noc2c1CCc1ccccc1-2 | 102 | 104
CN(C1CCCCC1)S(=O)(=O)c1ccc2c(c1)c(=O)c(C(=O)NCc1ccc(F)cc1)cn2C | 107 | 110
Cc1cc(C)c(/C=C/c2onc(C)c2S(=O)(=O)N2CCC(C(=O)N3CCN(c4ccc(Cl)cc4)CC3)CC2)c(C)c1 | 108 | 110
Cc1csc2nc(COC(=O)c3ccc(NC(=O)c4ccccc4Br)cc3)cc(=O)n12 | 103 | 103
Cc1ccc(C)c(NC(=O)N2CCN(C)c3ncccc32)c1 | 105 | 116
Cc1cccc(OCC(=O)Nc2ccc(-c3nc4cc(C)ccc4o3)c(O)c2)c1 | 109 | 110
CC(=O)Nc1ccc(NC(=O)CSc2nccn2C)cc1 | 109 | 109
Cc1ccc(NC(=O)c2oc3ccc(S(=O)(=O)N4CCC5(CC4)OCCO5)cc3c2C)cc1C | 106 | 102
COc1ccc(-n2c(=O)c3ccc(C(=O)NCc4ccc(C)cc4)cc3n(Cc3ccc(C)cc3)c2=O)cc1 | 105 | 106
CC(=O)C1=C(c2ccc(Cl)cc2)N(C(C)=O)n2c(nnc2C2CCCCC2)S1 | 100 | 108
COc1ccc(N2CCN(C(CNC(=O)C(=O)NCCc3ccccc3)c3cccnc3)CC2)cc1 (stereo unspecified) | 109 | 112
Cc1ccc(CNC(=O)CCCn2c(=O)c3ccccc3n(CC(=O)C(C)(C)C)c2=O)cc1 | 110 | 111
Cc1nc(N)c(S(=O)(=O)c2ccccc2)c(Nc2ccc(Br)cc2)n1 | 107 | 112
CCN1CCN(c2oc(-c3ccc(COc4ccccc4C)o3)nc2C#N)CC1 | 103 | 95
CCc1ccc2nc(N(Cc3cccnc3)C(=O)c3cccs3)sc2c1 | 104 | 102
Cc1ccc(NC(=O)Cn2c(=O)n(Cc3ccccc3)c(=O)c3c(C)c(C)sc32)c(C)c1 | 105 | 112
COc1cccc(NC(=O)CSc2nc3ccc(NC(=O)c4ccco4)cc3s2)c1 | 109 | 101
Cc1cc(C)n2nc(NCc3ccccc3Cl)nc2n1 | 119 | 116
CCOC(=O)c1cccc(NS(=O)(=O)c2cn(C)c(C)n2)c1 | 107 | 112
O=C(O)CCSc1nnc(-c2ccc(Cl)cc2Cl)o1 | 106 | 108
O=C(Nc1cccc(NC(=O)c2ccc(Br)o2)c1)c1ccccc1 | 110 | 113
COC(=O)c1ccc(C2CC(=O)Nc3c2c(C)nn3-c2nc(C)cc(C)n2)cc1 (stereo unspecified) | 95 | 99
CCN(CC)CCCNC(=O)c1ccc(Cn2c(=O)[nH]c3cc(OC)c(OC)cc3c2=O)cc1 | 106 | 101
Cc1ccc(-n2nc(CO)c(C(=O)NCc3cccs3)n2)cc1 | 106 | 114
Cc1cccc(-c2nc(SCC(=O)Nc3cccc(C(F)(F)F)c3)n3[nH]c(=O)cc3n2)c1 | 98 | 103
COc1ccc(S(=O)(=O)N2CCC(C(=O)Nc3ccc(Oc4ccccc4)cc3)CC2)cc1OC | 110 | 114
CCN(C(=O)CCn1cnc2onc(-c3ccc(F)cc3)c2c1=O)c1ccc(OC)cc1 | 112 | 110

Arranged by molar mass (lowest first): seven of the compounds above.
SMILES | Polio RdRp inh | Polio RdRp inh intensity
Cc1cc(C)n2nc(NCc3ccccc3Cl)nc2n1 | 119 | 116
O=C(O)CCSc1nnc(-c2ccc(Cl)cc2Cl)o1 | 106 | 108
CCOC(=O)c1cccc(NS(=O)(=O)c2cn(C)c(C)n2)c1 | 107 | 112
Cc1ccc(-n2nc(CO)c(C(=O)NCc3cccs3)n2)cc1 | 106 | 114
O=C(Nc1cccc(NC(=O)c2ccc(Br)o2)c1)c1ccccc1 | 110 | 113
COC(=O)c1ccc(C2CC(=O)Nc3c2c(C)nn3-c2nc(C)cc(C)n2)cc1 (stereo unspecified) | 95 | 99
CCN(C(=O)CCn1cnc2onc(-c3ccc(F)cc3)c2c1=O)c1ccc(OC)cc1 | 112 | 110

Further results:
SMILES | Polio RdRp inh | Polio RdRp inh intensity
CN1C(=O)c2ccccc2Sc2ccc(NC(=O)NCc3ccccc3Br)cc21 | 107 | 111
CCOC(=O)c1cc(-c2ccccc2)n(CC(=O)NCc2ccc(C)cc2)c1C | 99 | 107
CCOc1ccc(/C=C(\C#N)c2nc3ccccc3c(=O)[nH]2)cc1OC | 104 | 106
COC(=O)c1c(-c2cccs2)csc1NC(=O)c1cc(OC)c(OC)c(OC)c1 | 73* | 69*
O=C(c1ccccc1F)N1c2nc(-c3ccco3)nn2C2(CCCCC2)[C@@H]2CCCC[C@@H]21 | 101 | 104
Cn1c(=O)c2c(SCC(=O)N3CCc4ccccc43)nc(-c3ccc(Cl)cc3)nc2n(C)c1=O | 112 | 107
CCN(CC)S(=O)(=O)c1ccc2c(c1)N(CC(=O)N1CCN(c3cccc(C(F)(F)F)c3)CC1)C(=O)CO2 | 111 | 111
Cc1ccc(C)n1-c1nnc(N2CCCC(C(=O)NCc3cccc(F)c3)C2)s1 (stereo unspecified) | 104 | 105
COc1cccc(-n2c(=O)c3c(C)c(C)sc3n(CC(=O)NCCc3ccc(OC)c(OC)c3)c2=O)c1 | 111 | 112
Fc1ccccc1Nc1ncnc2c1nc1n2CCCCC1 | 106 | 112
CCNc1nc(NC(C)(C)C)nc(Oc2ccc(=O)n(C)n2)n1 | 103 | 104
COc1ccc(C(=O)Nc2ccc(N3CCOCC3)c(C(F)(F)F)c2)cc1OC | 99 | 95
COc1cc(C2NC(=O)N(C)C3=C2C(=O)N(c2ccccc2)C3)ccc1O (stereo unspecified) | 110 | 110
CCOc1ccc(CCNC(=O)CN2C(=O)COc3ccc(S(=O)(=O)N4CCCCCC4)cc32)cc1 | 105 | 107
CCCCn1c(CNC(=O)c2ccc(OC)cc2)nnc1SCC(=O)Nc1ccccc1 | 98 | 102
O=C(Nc1cc(C(F)(F)F)ccc1Cl)c1cc(-c2ccc3c(c2)OCCO3)on1 | 101 | 98
COC(=O)c1ccc(C2c3c(oc4cc(C)c(C)cc4c3=O)C(=O)N2c2ccccn2)cc1 (stereo unspecified) | 109 | 107
Cc1cc(-c2ccccc2)n2nc(-c3cccc(Br)c3)cc2n1 | 109 | 111
COCCCNC(=O)C1CCN(Cc2nc(-c3ccc(OC)c(OC)c3)oc2C)CC1 | 107 | 109
CCn1cc(C(=O)N2CCN(c3ccccc3OC)CC2)c(=O)c2cc(S(=O)(=O)N3CCCCC3)ccc21 | 100 | 102
O=C(COCc1cc(-c2cccs2)on1)N1CCN(c2cccc(Cl)c2)CC1 | 102 | 109
CCCCCSc1ncnc2c1sc1nc(N3CCOCC3)c3c(c12)CCCC3 | 105 | 108
Cc1sc2c(c1C)c(=O)n(CCc1ccccc1)c(=O)n2Cc1cccc(F)c1 | 104 | 107
COc1ccccc1-n1c(/C=C/c2c(C)n(C)c3ccccc23)nc2ccccc2c1=O | 109 | 112
O=C(CSc1nc2c([nH]c3ccccc32)c(=O)n1-c1ccc(F)cc1)N1CCCc2ccccc21 | 108 | 113
COc1ccc(OC)c(S(=O)(=O)N2CC=C(c3c(C)n(CC(=O)N4CCCC4)c4ccccc34)CC2)c1 | 101 | 102
COc1cccc(C(=O)N(Cc2nc(-c3ccc(Cl)cc3)no2)C(C)C)c1OC | 102 | 104
O=C(CSc1ccccc1)NCc1ccc2c(c1)CCN2C(=O)c1ccc(F)cc1 | 101 | 105
CC(C)Cn1c(-c2ccc(S(=O)(=O)N3CCOCC3)cc2)csc1=Nc1cc(Cl)ccc1Cl | 108 | 113
CCOc1ccc(-c2cc3c(=O)n(Cc4nc(-c5cccc(OC)c5OC)oc4C)ccn3n2)cc1Cl | 99 | 99
CCc1ccc(CNC(=O)C(CC)n2nc(C)c3c(C)n(-c4ccccc4)nc3c2=O)cc1 (stereo unspecified) | 115 | 107
O=c1c2oc3ccccc3c2n(Cc2ccccc2)c(=O)n1Cc1ccco1 | 115 | 107
CCC1CN(C(=O)N2CCC(C(=O)NCCN(CC)CC)CC2)c2cc(C)ccc2O1 (stereo unspecified) | 107 | 110
COc1ccc(CNC(=O)C2=C(C)C(=O)OC23CCCCC3)cc1 | 98 | 101
CNc1ccc(-c2nc(-c3ccncc3)no2)cc1[N+](=O)[O-] | 117 | 113
Cc1cccc(-c2nn3c(=O)cc(CN4CCN(C(=O)c5ccccc5Br)CC4)nc3s2)c1 | 112 | 112
